NPYLR7 ag – agonists of mosquito NPYLR7 receptor, primary screen, cell-based, Aedes aegypti, calcium fluorescence, mosquito biting behavior; Aedes aegypti neuropeptide Y-like receptor 7 (NPYLR7); HEK293T NPYLR7/Galpha15, GCaMP6s calcium fluorescence; AID 1259423, 2018; activation, % at 10 µM; 270,000 tested, 0.15% active; in the data active means activation above about 40%;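 further: 0% = vehicle and 100% = reference agonist at the receptor; some compounds past the cut are filed as inactive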
NPYLR7 ag max-min – second read-out of NPYLR7 ag, no call of its own (marks repeat the call); activation, %; measured here: Max-Min RFU normalised activation; some inactives read as strong as hits;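 span of the calcium signal over five minutes; 0% = vehicle and 100% = native peptide agonist; compound fluorescence can raise it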
* = called active by the depositor; & = joins results of further samples.

SMILES	NPYLR7 ag	NPYLR7 ag max-min
COc1ccc(-n2ccnc(SCc3ccc(C)cc3)c2=O)cc1OC	-1	1
O=C(NCc1ccc(Cl)cc1)NCC1CCN(Cc2cnc[nH]2)C1 (stereo not drawn)	1	-2
CCOC(=O)C1(CC2CC2)CCN(S(=O)(=O)c2cc(C)sc2C)CC1	5	3
C/C(=C\c1ccccc1)CNCC(C)(C)N1CCN(C)CC1	13	9
CCNS(=O)(=O)c1cc(N(C)S(=O)(=O)c2ccc(Cl)cc2)c(C)cc1C	2	0
COC(=O)Cn1c(SCCOc2cccc(C)c2)nc2ccccc21	-2	6
CC(CCC(=O)NCc1ccc2[nH]c3c(c2c1)CCCC3)N1CCN(C)CC1 (stereo not drawn)	6	3
CNCCCCOc1cccc2c(=O)c3ccccc3oc12	-4	-4
O=C(Nc1nnc(SCc2cccc(OC(F)(F)F)c2)s1)c1cccs1	7	22
CC1(C)[C@H]2CC[C@@H](CNC(=O)c3cc(=O)n(-c4ccccc4)[nH]3)[C@@H]1C2	7	10
Cc1ccc(OCc2nnc(NC(=O)c3ccco3)s2)c(C)c1	-1	-11
Cc1ccc(C(=O)N2CCC(CCC(=O)N3CCC(Cc4ccccc4)CC3)CC2)cn1	6	3
Cc1cccc(C(=O)NNC(=O)c2ccc(=O)n(Cc3ccccc3)c2)c1	-11	-15
COc1ccc(-c2nc(N)nc3c2CN(CC2CC=CCC2)C3)cc1 (stereo not drawn)	-6	-14
O=C(c1n[nH]c(=O)c2ccccc12)N1CCC2(CCCN(Cc3ccc(F)c(F)c3)C2)C1 (stereo not drawn)	-5	-9
Fc1ccc(C2=NNC3=Nc4ccccc4OC3C2)cc1 (stereo not drawn)	5	3
CC(=O)c1c(C)[nH]c(C(=O)Nc2nc(C)cs2)c1C	6	7
Cc1ccc(S(=O)(=O)NC(c2cccs2)C2CC2)cc1C (stereo not drawn)	1	1
O=C(c1ccc(F)cc1)N(CCCn1ccnc1)c1nc2c(F)cccc2s1	-14	-23
O=C(O[C@@H]1Cc2c(O)cc(O)cc2O[C@@H]1c1cc(O)c(O)c(O)c1-c1c([C@H]2Oc3cc(O)cc(O)c3C[C@H]2O)cc(O)c(O)c1O)c1cc(O)c(O)c(O)c1	-6	-14
CC(=O)N1N=C(c2ccccc2)OC1C(=O)N1CCCC(C)(C)C1 (stereo not drawn)	10	2
CCOc1ccc(S(=O)(=O)NCCCN2CCOCC2)c2ccccc12	10	5
Cc1cccc(C)c1Oc1ncccc1CNC(=O)[C@@H](N)[C@@H](C)O	7	0
CCc1ncc(C(=O)N(CC)Cc2cc(Cl)ccc2OC)cn1	3	-6
CCNC(=O)N1CCN(CCCC(c2ccc(F)cc2)c2ccc(F)cc2)CC1	7	-6
Cc1nc2sc3c(=O)[nH]cnc3c2c2c1COC(C)(C)C2	6	4
O=C(NC(C(=O)N1CCOCC1)C1CCN(C(=O)c2cccc(Br)c2)CC1)c1ccc(F)cc1 (stereo not drawn)	1	8
Cc1nc(NCCn2cccn2)c2cnn(C)c2n1	-5	-10
CS(=O)(=O)CCn1cnc(-c2ccccc2)c1-c1cc2ccccc2o1	7	6
Cc1cc(NC(=O)c2ccccc2)n(-c2nc3c(c(=O)[nH]2)CCC3)n1	9	1
CCN1C(=O)SC(N(CCN2C(=O)CSC2=O)c2ccccc2)C1=O (stereo not drawn)	23	20
COc1cc(OC)cc(C(=O)Oc2coc(CSc3nc(C)cs3)cc2=O)c1	-13	-5
COc1ccc(/C=C2\C=C(c3ccccc3)N(c3ccc(-c4ccccc4)cc3)C2=O)cc1	-1	6
CNC(=O)NC(=O)CSc1nccn1-c1ccc(OC)cc1	4	4
Nc1cc(N)nc(SCc2cccnc2)n1	-2	3
CC1CC(C)CN(CC(=O)N2CCN(S(=O)(=O)c3ccc(F)c(Cl)c3)CC2)C1 (stereo not drawn)	-1	4
CN1CCCC[C@]2(C[C@H](C(=O)O)[C@H](c3ccco3)N2C(=O)c2ccc(F)cc2)C1=O	6	11
CCN(CC(=O)NC1CCS(=O)(=O)C1)C(=O)C=Cc1ccc(Br)o1 (stereo not drawn)	-1	1
CC(=O)NNC(=O)CNS(=O)(=O)c1ccccc1	0	-6
O=C(NCCc1ccccc1F)N1CCCn2cncc2C1	12	10
Cc1nc(C)c(Cc2cccc(Cl)c2)c(N2CCN(C(=O)c3ccco3)CC2)n1	-2	5
CNC(=O)C1CCCN1Cc1csc(C(C)(C)C)n1 (stereo not drawn)	8&14	4&5
CCN(CC(=O)NC(C)(C)C)C(=O)c1ccccc1-c1ccc(C(F)(F)F)cc1	1	1
COCC(=O)Nc1ccc(N(C)C)c(CN(Cc2cccc(F)c2)C(=O)c2ccc(OC)cc2)c1	-3	10
CCc1nc2ccc(C(=O)N(C)CCN(C)C)cn2c1N(CC)C(C)=O	-3	-7
CC(=O)Nc1cccc(NC(=O)CSc2nc(=O)n(CCCN(C)C)c3c2CCC3)c1	1	-1
O=C(c1ccccn1)C1CCCN(c2nccc(CCC(F)(F)F)n2)C1 (stereo not drawn)	3	-1
CCc1nc(C)sc1CNc1nc(-c2ccccn2)nc2c1CCNC2	6	3
COc1ccc(OC)c2[nH]c(=O)c(CCNC(=O)c3cc(C)cc(C)c3)cc12	0	38
O=C(NCc1ccccc1OC(F)(F)F)C1CCC(=O)N(Cc2ccccn2)C1 (stereo not drawn)	2&-2	-2&-1
CC(=O)Nc1ccc2nc(CN3CCN4CCNC(=O)C4C3)ccc2c1 (stereo not drawn)	-3	-6
CCOCCNC(=O)c1c(C)noc1-c1cc(OC)cc(OC)c1	3	0
CCOc1ccc(NC(=O)c2cc(Cl)nc3ccccc23)cc1	4	0
Cc1nc2c(OCc3ccc(Cl)cc3Cl)cccn2c1N(C)Cc1cccs1	-5	-8
Cc1cc(C(=O)N2CCC(N(C)C)C2)ccc1NC(=O)c1ccco1 (stereo not drawn)	2	-3
Cc1cc(CN2CCCC2)ccc1Oc1cncc(C(=O)N2CCCC2)n1	-1	-6
CN(C(=O)c1ccncc1)C(C#N)c1cc(Br)ccc1F (stereo not drawn)	-1	-2
O=C(CN1C(=O)CCC1=O)Nc1nc(-c2ccccc2)cs1	-3	-10
Cc1ccccc1OCC(O)CN(Cc1ccc(F)cc1F)CC1CC(c2ccccc2C)=NO1 (stereo not drawn)	-1	6
CCc1cccc2c(C(CC(=O)NC3CC3)c3ccc(Cl)c(Cl)c3)c[nH]c12 (stereo not drawn)	5	14
Other structures follow.
SMILES	NPYLR7 ag	NPYLR7 ag max-min
O=C(CSc1nnc2ccc(-c3cccnc3)nn12)N1CCCCC1	-17	-12
Cc1cc(C(=O)N2CCN(c3ccc(NC(=O)c4ccco4)cn3)CC2)no1	1	-3
COc1cccc(Cc2nsc(Oc3cc(C(=O)N4CCN(c5ccccc5Cl)CC4)ccc3OC)n2)c1	10	14
O=C1/C(=C/c2ccc(-c3ccc(Cl)c(Cl)c3)o2)C=C(c2ccccc2)N1c1cccc(Cl)c1	-1	5
N#Cc1cc(NC(=O)c2ccc(F)cc2)c(=O)n2c1sc1ccccc12	13	3
CCCCc1ccc(C(=O)NNC(=O)c2ccc[nH]2)cc1	-1	-2
O=c1ccc(-c2ccccc2)nn1CCCNS(=O)(=O)c1cccnc1	-4	-4
CC(C)=NOC(C)C(=O)N1CCN(Cc2c(-c3ccccc3)nc3ccccn23)CC1 (stereo not drawn)	8	9
CC1CC(C)CN(C(=O)CSc2n[nH]c(-c3ccccc3Br)n2)C1 (stereo not drawn)	1	0
COc1c(C)cc(-c2ccc(C(=O)N(C)C)o2)cc1C	-2	-2
CC1(C)CC(=O)C(C=NCCCNC2CCCCC2)=C(O)C1	-1	-4
C#CCOCC(O)CN(CCC(C)C)Cc1ccc(C)s1 (stereo not drawn)	21	24
C=CCSc1nnc(NC(=O)c2ccccc2Br)s1	-5&20	-3&29
Cc1nnnn1-c1cc2c(s1)CCCC2	2	5
C=CCn1c(=O)c2ccccc2n2c(=S)n(CN(C)Cc3ccc4c(c3)OCCO4)nc12	1	3
CCOC(=O)c1c(NC(=O)c2noc(C(C)C)c2[N+](=O)[O-])sc(C)c1C	7	7
O=C(c1cccs1)N(Cc1cccc(F)c1)CC1CC(c2ccccc2F)=NO1 (stereo not drawn)	14	12
COc1ccc(-c2noc(C3CCN(C(=O)c4c(Cl)cc(Cl)cc4Cl)CC3)n2)cc1	4	1
O=C(c1ccc(Cl)cc1)N(Cc1ccco1)Cc1c(-c2ccccc2)noc1N1CCCC1	-8	-5
COc1ccc(C(=O)NC(C(=O)NCC(C)C)C2CCN(C(=S)Nc3ccc(F)cc3)CC2)cc1 (stereo not drawn)	5	8
CCCCCN(C(=O)NC(=O)NCCCC)S(C)(=O)=O	5	0
COc1ccccc1N1CCN(c2ccc(NC(=O)Nc3c(C(C)C)cccc3C(C)C)cc2C(=O)NC(C)c2ccccc2)CC1 (stereo not drawn)	15	23
CCS(=O)(=O)CCNC(=O)NCCC(C)(C)C	5	7
O=C(NCc1ccccn1)C1CCN(Cc2cc3n(n2)CCCNC3)CC1	4	4
O=c1[nH]nc(CN2CCOCC2)n1-c1ccc2c(c1)OCO2	1	1
COc1nc2c(cc1C(=O)N1Cc3cnc(CC(C)C)nc3C1)CCC2	15	-1
CSCC(=O)Nc1nc(-c2c(C)cc(C)cc2C)cs1	-17	-19
Cc1sc(N/N=C\c2cccc(O)c2)nc1-c1ccccc1	0	-2
CC(NS(=O)(=O)N1CCCCCC1)c1ccc2c(c1)CCO2 (stereo not drawn)	3	2
O=C(c1ccc2c3c(cccc13)CC2)C1CCCN(C(=O)c2cc3ncccn3n2)C1 (stereo not drawn)	7	5
COC(=O)NC(C)c1ccc(C)cc1C (stereo not drawn)	0	-2
COC(=O)c1c(NC(=O)CSc2nncs2)sc2c1CCCCC2	8	13
Cc1cc(C)c(C(=O)N2CCOC(Cc3ccc(F)cc3)C2)o1 (stereo not drawn)	10	0
Cc1[nH]n(-c2ccccc2)c(=O)c1C(C[N+](=O)[O-])c1ccc(Cl)cc1 (stereo not drawn)	-1	-3
O=C(CCCn1ccnc1)N1CCC2(CCNCC2)CC1	6	1
CC(C)C[C@@H](N)C(=O)NCc1nncn1C1CCCCC1	1	0
CCOC(=O)COn1c(=O)c(-c2ccc(C)cc2)[n+]([O-])c2ccccc21	-4	-10
Cc1ccc(S(=O)(=O)C(C)c2ncc(C(C)(C)C)o2)cc1C (stereo not drawn)	4	3
CCn1cc(CNCc2cn(C)nc2-c2ccc(C3CCCCC3)cc2)cn1	11	5
Cc1ccccc1-c1noc(C2CCCCC2)n1	4	10
O=C(CSc1ncnc2sc3c(c12)CCC3)NCC(F)(F)F	-3	1
Nc1ccn(C2CSC(CO)O2)c(=O)n1 (stereo not drawn)	-6	-8
Oc1cc2c(cc1CN1CCN(c3ncccn3)CC1)OCO2	3	10
CN(C(=O)NCc1ccccc1Oc1ccccc1)C1CCOCC1	4	-2
O=C(C1CC1)N(c1cccc(Cl)c1)C1C=CS(=O)(=O)C1 (stereo not drawn)	0	1
CC1CCC(NC(=O)CN2CCN(c3ccc(Cl)cn3)CC2)CC1 (stereo not drawn)	-3	-3
CN1CC(c2nc3ccccc3n2Cc2ccc(Cl)c(Cl)c2)CC1=O (stereo not drawn)	-2	0
O=S(=O)(N1CCCC1)N1CCc2c(ncnc2N2CCOCC2)C1	7	5
O=C1OC(c2ccc3c(c2)OCO3)=NC1=Cc1cccc(F)c1	-4	-6

Screening data (PubChem)

An excerpt (hit frequency here may not be typical).
